# TSHR agonist – qHTS Assay for Agonists of the Thyroid Stimulating Hormone Receptor | Thyrotropin receptor (Homo sapiens), P16473 | HEK293-CNG-TSHR cells (CNG channel as cAMP sensor), membrane potential dye, cAMP | Potency, µM (top dose mostly 57.1 µM), without a hit: at the highest dose activation, actives largely listed as activators | actives 0.48% (n = 73,000) | AID 926, 2007; active = well fitted activation curve of enough size with the parental cells flat; inconclusive = any curve in the parental cells; inactive = parental cells flat and receptor cells flat or falling; further: potency means the concentration at half of the fitted maximal effect; % of control where 0% means no effect; weak receptor curves with flat parental cells got no call and are not listed
# Target sequence (P16473 whole entry, looked up): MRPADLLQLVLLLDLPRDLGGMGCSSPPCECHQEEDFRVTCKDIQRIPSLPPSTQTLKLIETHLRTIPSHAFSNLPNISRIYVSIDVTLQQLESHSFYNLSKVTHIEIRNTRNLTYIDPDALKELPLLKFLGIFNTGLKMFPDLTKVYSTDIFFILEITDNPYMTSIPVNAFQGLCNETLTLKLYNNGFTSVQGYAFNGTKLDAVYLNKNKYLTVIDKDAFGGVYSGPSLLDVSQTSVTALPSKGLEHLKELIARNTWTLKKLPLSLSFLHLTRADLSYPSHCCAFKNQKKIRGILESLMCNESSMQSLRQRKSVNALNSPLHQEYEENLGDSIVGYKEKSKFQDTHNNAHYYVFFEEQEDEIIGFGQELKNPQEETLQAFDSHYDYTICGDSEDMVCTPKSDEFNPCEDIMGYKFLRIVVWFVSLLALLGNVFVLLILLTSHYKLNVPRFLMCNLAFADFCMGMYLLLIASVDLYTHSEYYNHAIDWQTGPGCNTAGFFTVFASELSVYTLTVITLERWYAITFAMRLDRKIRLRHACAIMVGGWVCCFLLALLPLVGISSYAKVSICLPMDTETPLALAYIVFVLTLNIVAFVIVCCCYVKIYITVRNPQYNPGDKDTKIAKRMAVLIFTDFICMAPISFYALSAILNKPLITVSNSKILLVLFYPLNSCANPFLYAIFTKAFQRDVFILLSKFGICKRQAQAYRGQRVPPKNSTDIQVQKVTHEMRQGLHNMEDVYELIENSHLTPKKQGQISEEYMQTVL
#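 cAMP rise detected as CNG-channel membrane depolarization by fluorescent dye (emission 590 nm), 30 min after compound, following 60 min dye loading containing 100 uM RO 20-1724 at room temperature. Cells: TSHR/CNG HEK 293, with parental CNG HEK 293 as control.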
# AID923 – qHTS Assay for Allosteric/Competitive Inhibitors of Caspase-1: Spectroscopic Profiling in AFC Spectral Region | compound fluorescence, AFC spectral region (405/520 nm); almost no hit is shown here | Potency, µM (top dose mostly 57.5 µM), without a hit: top-dose fluorescence increase, hits mostly activators | actives 1.1% (n = 75,000) | AID 923, 2007; active means well fitted activation curve with a large enough effect; inconclusive means small, poorly fitted or top-dose-only effect;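 further: potency means the concentration at half of the fitted maximal effect; 0% is about no effect; scaled to a free AFC standard on each plate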
#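 Compound autofluorescence profiled at 405 nm ex/520 nm em during kinetic caspase 1 run (50 nM enzyme, 5 uM Ac-WEHD-AFC, HEPES pH 7.5, 10 mM DTT). Titration up to 57 uM; baseline from regression intercept, normalized to AFC standard curve.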
# A488 autofl – qHTS Assay for Spectroscopic Profiling in A488 Spectral Region; AID 591, 2007; compound autofluorescence, A488 spectral region, dye equivalency; active compounds read high; actives 0.1% (n = 59,000); max dye equivalency, M; active = above 10 nM dye equivalent; inconclusive = 1 to 10 nM; inactive = 1 nM or less; about half of its hits are not listed in these tables;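 further: highest value over a series up to 38 µM; compound alone in buffer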
#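 Compounds pin-transferred into 100 mM Tris buffer, pH 8.0, incubated 15 min at room temperature, then imaged with 480 nm excitation/540 nm emission filters. Fluorescence converted to Alexa 488 dye-equivalent concentration via an on-plate six-point A488 standard curve.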
# A647 fluor – qHTS Assay for Spectroscopic Profiling in A647 Spectral Region; Compound fluorescence, A647 channel (570/671 nm), Tris buffer; max dye-equivalent concentration, M; 59,000 tested, under 10 active; active means above 1 µM dye equivalent; inconclusive means 0.1 to 1 µM; inactive means 0.1 µM or less;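 further: values scaled relative to a standard on each plate; highest value over a series up to 38 µM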
#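 Tris 100 mM pH 8.0; cpd + A647 stds pin-transferred; 15 min RT; CCD imager, ex 570/em 671. Output = A647-equivalent conc. per cpd conc.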
# Resorufin fluor – qHTS Assay for Spectroscopic Profiling in Resorufin Spectral Region; Compound fluorescence, resorufin region 547/598 nm, buffer; active compounds read high; max dye-equivalent concentration, M; actives 0.04% (n = 59,000); active = above 10 nM dye equivalent; inconclusive = 1 to 10 nM; inactive = 1 nM or less; a few of its hits are not listed in these tables; further: highest value over a series up to 38 µM
#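 Dye-equivalent concentration values derive from comparing each well's 547/598 nm fluorescence against resorufin standards included on every plate. Incubation was 15 min at room temperature in 100 mM Tris, pH 8.0.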
# Active calls of the source: *; i = inactive; u = inconclusive; x = no result given; & = joins results of further samples; [ ] = remark or other dose. An excerpt; count on the stated rates, not on these rows.
# Values run as follows: TSHR agonist | AID923 | A488 autofl | A647 fluor | Resorufin fluor
CCN(c1ccccc1)S(=O)(=O)c1ccc2[nH]cc(C(=O)N3CCOCC3)c(=O)c2c1
  -1% | -1.6% | i | 1e-09 | i
O=C(Nn1cnnc1)c1cc(-c2ccccn2)nc2ccccc12
  -7% | -0.1% | i | 3.5e-08 | i
Cn1cccc1-c1cc(C(=O)O)[nH]n1
  -3% | 1.9% | i | 4.4e-08 | i
O=[N+]([O-])c1ccc(CSCc2ccc(Cl)cc2)cc1
  3%[11.4 µM] | -0.9%[11.5 µM] | i | 1.7e-08 | i
Cc1cc(-c2nc3ncccc3o2)ccc1N
  -5% | 5.6% | i | 1.8e-08 | i
CCN(CC)S(=O)(=O)c1ccc(Cl)c(C(=O)Nc2nnc(C)s2)c1
  1% | -0.5% | x | x | x
O=C(CN1CCN(c2ccc(F)cc2)CC1)OCc1ccccc1
  3% | 0.1% | i | 2.1e-08 | i
COc1ccc2c(c1)cc(C(=O)O)n2C
  4% | -0.8% | i | 1.7e-09 | i
Cc1cccc(NC(=O)C2CCCN2C(=O)OCC(C)C)c1C (centres undefined)
  u | -0.4% | i | 2e-08 | i
COc1ccccc1-c1nccc(NCc2cnc(C)cn2)n1
  5% | -0.3% | i | 3.3e-08 | i
CCn1cnc2sc(C(=O)O)c(C)c2c1=O
  3% | -2.7% | i | 6.5e-09 | i
COc1cc(C)nc(N2CCCC(C(=O)Nc3cccc(Cl)c3Cl)C2)n1 (centres undefined)
  u | -0.8% | i | 2.8e-09 | i
O=C(Nc1ccccc1)N(CCc1nc2ccccc2[nH]1)C1CCCC1
  6% | 0.5% | i | 1.7e-09 | i
ON1C(c2ccc(Cl)cc2Cl)N(O)[C@H]2CCCC[C@H]21 (some centres undefined)
  x | -0.4% | i | 4.5e-09 | i
CC(SCCc1ccccn1)C(=O)O (centres undefined)
  3% | 3.5% | i | 1e-08 | i
Cc1onc(-c2ccccc2Cl)c1C(=O)N1CCN(c2cccc(Cl)c2)CC1
  u | 0.4% | x | x | x
COc1ccc(F)cc1S(=O)(=O)N1CCN(Cc2ccc3c(c2)OCO3)CC1
  -2% | -0.5% | i | 2.9e-08 | i
COc1ccc2[nH]c(=O)c(CN(C(=O)C3CCCO3)c3ccc(C)cc3)cc2c1 (centres undefined)
  -2% | 0.8% | i | 1e-09 | i
c1ccc(Oc2cccc(NC3=NCCC3)c2)cc1
  12% | 0.2% | i | 1.7e-08 | i
CCn1cc(C(=O)NCc2ccccc2OC)c(=O)c2ccc(C)nc21
  0% | 0.0% | i | 7.9e-09 | i
COc1ccc(S(=O)(=O)N2CCC(C(=O)N3CCN(c4ccccc4OC)CC3)CC2)cc1
  -3% | 2.5% | x | x | x
CC(=O)N(C)c1nc(-c2ccc(Cl)cc2)cs1
  -2% | 0.5% | i | 1.3e-09 | i
Cc1cccc(-n2ncc3c(Nc4ccc(F)cc4)ncnc32)c1
  9% | -2.3% | x | x | x
Fc1ccc(-c2nnc3sc(C4COc5ccccc5O4)nn23)cc1 (centres undefined)
  u | -1.2% | i | 2.3e-08 | i
Cc1ccc(S(=O)(=O)N(C)c2ccc(OCC(=O)OCc3c(C)noc3C)cc2)cc1
  15% | -0.9% | i | 1.3e-08 | i
CC(C)(C)OC(=O)N[C@@H](Cc1c[nH]c2ccccc12)c1nnc(SCC(N)=O)o1
  -5% | 0.0% | i | 1e-09 | i
O=C(CN(C1CCCCC1)S(=O)(=O)c1ccccc1)N1CCCC1
  17% | 0.6% | x | x | x
CCCn1c(SCC(=O)NC)nnc1C(C)C
  1% | 1.0% | i | 1e-09 | i
CCOc1nc(-c2ccccc2O)nc2ccccc12
  u | 0.3% | i | 2.8e-08 | i
Cc1cccc(Nc2nc(N)nc(CN3CCN(C)CC3)n2)c1
  6% | 0.2% | i | 1e-09 | i
CCOc1cc2[nH]c(=O)n(CCC(=O)NCCc3ccccc3)c(=O)c2cc1OCC
  -9% | 0.3% | i | 1e-09 | i
CO/N=C\c1ccc(C(=O)N2[C@H](c3ccc(C)cc3)[C@@H](C)CC[C@H]2C(=O)OC)cc1
  u | -0.9%[11.5 µM] | x | x | x
O=C(COC(=O)c1ccccc1Oc1ccccc1)NC1CCS(=O)(=O)C1 (centres undefined)
  u | 1.9% | i | 3.1e-09 | i
COc1ccccc1-c1nc(S(=O)(=O)c2ccc(Cl)cc2)c(N(C)C)o1
  u | -3.3% | i | 1e-09 | i
Cc1cc(C)cc(N(C(=O)C2CCCC2)C2C=CS(=O)(=O)C2)c1 (centres undefined)
  -2%[11.4 µM] | -0.2% | i | 3.2e-09 | i
CCOC(=O)Cn1c(=O)oc2cc(S(=O)(=O)N3CCN(c4ccccn4)CC3)ccc21
  -1%[11.4 µM] | 3.1% | x | x | x
Cn1c(SCc2cccc3ccccc23)nnc1-c1ccco1
  u | -2.0% | i | 3.6e-08 | i
CSc1nnc(-c2ccc(O)cc2)n1C
  -17% | 0.9% | i | 1.9e-08 | i
CCc1cccc(NC(=O)Cn2cccc2)c1
  0%[11.4 µM] | 1.2% | i | 3.6e-08 | i
COc1ccccc1CNc1cc(-c2ccccc2OC)ncn1
  u | -0.7% | i | 4.1e-08 | i
CC(C)CCSc1nc(N)c(C#N)cc1C#N
  5% | 5.1% | i | 3.2e-08 | i
COc1ccccc1C(=O)NCCn1cc(SCC(=O)NCc2ccco2)c2ccccc21
  u | 2.3% | i | 1e-09 | i
C=CCn1c(=O)c(C(=O)Nc2ccccc2OC)c(O)c2ccccc21
  -7%[11.4 µM] | 0.5% | x | x | x
COCCCn1cnc2c(c1=O)c1nc3ccccc3nc1n2CCc1ccccc1
  x | x | i | 4.6e-09 | i
COc1nc(C#N)nc(N(C)C)n1
  -1%[11.4 µM] | 1.1% | i | 2e-09 | i
CSc1ccccc1NC(=O)c1ccc(C)o1
  3% | 2.1% | x | x | x
Cc1ccc(-n2nc3c(c2NC(=O)c2cccs2)CSC3)cc1
  u | 2.1% | i | 1.7e-08 | i
CCNc1ncc2ncc(=O)n(CCOC)c2n1
  -3% | u | i | 1e-09 | i
CC(C)(Oc1cccc2ccccc12)C(=O)O
  10% | -1.3% | i | 1e-08 | i
Cc1nn(-c2nc3ccccc3n2Cc2ccccc2)c2c1C(=O)CC(C)(C)C2
  u | 0.5% | i | 2.9e-08 | i
Cc1ccc(N(CC(O)CN(C)C)S(=O)(=O)c2ccccc2)cc1 (centres undefined)
  x | x | i | 1e-09 | i
CCOC(=O)c1sc(=N)n(-c2ccc(OC)cc2)c1C
  -9% | 0.3% | i | 1.5e-09 | i
CCOC(=O)c1cc(-c2ccco2)nc2c1c(C)nn2-c1ccccc1
  3.2µM* | 4.6% | i | 1.3e-09 | i
Cc1ccccc1NS(=O)(=O)c1cc(C(N)=O)ccc1C
  6% | -0.5% | i | 3e-08 | i
COc1ccccc1CN1CC(C(=O)N2CCN(c3ccc(F)cc3)CC2)CC1=O (centres undefined)
  2% | -1.2% | i | 1e-09 | i
COc1cccc(C(=O)CN2CCC(NC(=O)NC3CCCCC3)CC2)c1
  7% | 1.6% | i | 5.4e-09 | i
CCn1c(COc2cccc(C)c2)nnc1SCC(=O)N1CCCC1
  9% | -0.4% | i | 4.6e-09 | i
CC(C)(C)NC[C@H](O)c1cc(O)cc(O)c1
  u | 1.0%[25.7 µM] | i | 1.3e-09&1.8e-09 | i
CCCN1CCN(C(=O)c2cn(CC(C)C)c(=O)c3cc(OC)c(OC)cc23)CC1
  8% | 0.9% | i | 2e-08 | i
CC(=O)c1c(C)nc2ccc(Br)cc2c1C(=O)O
  2%[11.4 µM] | 0.2% | x | x | x

# Compounds above that have a furan ring, fused or not, in the order listed:
# Values run as follows: TSHR agonist | AID923 | A488 autofl | A647 fluor | Resorufin fluor
Cn1c(SCc2cccc3ccccc23)nnc1-c1ccco1
  u | -2.0% | i | 3.6e-08 | i
COc1ccccc1C(=O)NCCn1cc(SCC(=O)NCc2ccco2)c2ccccc21
  u | 2.3% | i | 1e-09 | i
CSc1ccccc1NC(=O)c1ccc(C)o1
  3% | 2.1% | x | x | x
CCOC(=O)c1cc(-c2ccco2)nc2c1c(C)nn2-c1ccccc1
  3.2µM* | 4.6% | i | 1.3e-09 | i

# Following part:
# Values run as follows: TSHR agonist | AID923 | A488 autofl | A647 fluor | Resorufin fluor
Cc1[nH]nc2c1C(c1ccccc1F)CC(=O)N2 (centres undefined)
  8% | -1.0% | i | 2.2e-08 | i
O=C(COc1ccccc1)NC(Cc1c[nH]c2ccccc12)C(=O)O (centres undefined)
  4% | -0.1% | x | x | x
CCn1cc(NC(=O)Nc2ccccc2C(=O)OC)c(C(N)=O)n1
  2% | -0.4% | i | 1.9e-08 | i
CCOC(=O)C1=C(C)NC(SCC(=O)Nc2cc(C)on2)=C(C#N)C1c1cccs1 (centres undefined)
  17% | 2.7% | i | 5.4e-09 | i
COc1ccc(OC(C)C(=O)NC2CC(C)(C)NC(C)(C)C2)cc1 (centres undefined)
  3% | 2.0% | i | 1e-09 | i
Cc1cnc(C(=O)Nc2ccc3c(c2)CCC3)cn1
  7% | -0.9% | i | 4.4e-09 | i
COc1ccc(-n2c(SCC(=O)NCC3CCCO3)nc3n[nH]c(C)c3c2=N)cc1 (centres undefined)
  -3% | 0.2% | i | 7.3e-09 | i
Cc1ccc(-c2nnn(CC(=O)NC3CC4CCC3C4)n2)cc1 (centres undefined)
  5% | -1.1% | i | 5.6e-08 | i
Cn1c(Cn2c(=O)sc3ccccc32)nnc1SCC(=O)NCc1ccccc1Cl
  4% | -1.8% | x | x | x
CCCCn1c(=N)n(CC(O)COc2ccc(C)cc2)c2ccccc21 (centres undefined)
  u | -2.1% | i | 1e-09 | i
Cc1ccc(SC(C)c2nc(-c3cccnc3)no2)cc1 (centres undefined)
  15% | -0.8% | i | 1.7e-09 | i
OC(CCl)CCl
  3% | 5.1% | x | x | x
CC(C)Cn1cc(C(=O)NCCCN2CCCC2=O)c2c3ccccc3n(C)c2c1=O
  4% | 0.6% | i | 2.3e-09 | i
Cn1c(=O)c2c(nc(N3CCCCCC3)n2CC(=O)c2ccccc2)n(C)c1=O
  -18% | 0.3% | i | 2.4e-08 | i
CN(C)c1cc(-c2ccccc2)nc(N)n1
  0% | -1.5% | x | x | x
COc1cccc(N2CCN(C(=O)CCn3c(=S)[nH]c4cc5c(cc4c3=O)OCO5)CC2)c1
  19% | 0.1% | i | 5.1e-09 | i
COCCn1c(C)cc(C(=O)CSc2nnc3scc(-c4ccc(Cl)cc4)n23)c1C
  x | 1.4% | i | 2.5e-08 | i
O=C(Cn1nnc(-c2cccc(C(F)(F)F)c2)n1)NC(=O)NCc1ccco1
  u | 0.8% | i | 4.6e-09 | i
CCCCCc1nnc(NC(=O)C2CCCO2)s1 (centres undefined)
  2% | -3.6% | i | 2e-08 | i
O=C(Cn1ncc2c(=O)oc3ccccc3c21)NCC1COc2ccccc2O1 (centres undefined)
  9% | -2.3% | x | x | x
COc1ccc(CSc2nc(C)cc(=O)[nH]2)cc1
  11% | 5.9% | x | x | x
COC(=O)c1cc(C(=O)OC)cc(S(=O)(=O)Nc2ccc(Cl)c(N)c2)c1
  30% | -1.3% | i | 2e-08 | i
CN(C(=O)CSc1ncccc1C(=O)O)c1ccccc1
  6% | -1.5% | i | 1e-09 | i
COc1ccc(S(=O)(=O)N2CCC(NC(=O)Nc3ccc(C)cc3)CC2)cc1
  5% | 1.0% | i | 2.9e-08 | i
COc1cc(C)c(Br)cc1S(=O)(=O)N1CCCC1
  x | -1.2% | i | 6.3e-08 | i
